Screens: PubChem BioAssay, National Center for Advancing Translational Sciences (NCATS)
VACV mCherry inh = inhibitors of vaccinia virus infection (mCherry reporter signal); Vaccinia virus mCherry reporter infection, fluorescence; about a quarter of the inactives have no number; Potency, µM (titrated, usually from 36.5 µM), for inactives: at the highest dose activity change, negative = inhibition, actives largely listed as inhibitors; hit rate 0.63% among 310,000; AID 720579; active = well fitted inhibition curve with a large enough effect; inconclusive = small, poorly fitted or top-dose-only effect; inactive = no such curve, though single readings can be large or run the other way; tested in A549 cells; also: nearly all actives have a fitted effect of over 35% in size; inactives centre near -10
VACV Venus inh = vaccinia inhibition (Venus reporter); Vaccinia virus Venus reporter expression, fluorescence; Potency, µM (titrated, usually from 36.5 µM), without a hit: at the highest dose activity change, negative = inhibition, actives largely listed as inhibitors; hit rate 0.46% among 330,000; AID 720580; active means well fitted inhibition curve with a large enough effect; inconclusive means small, poorly fitted or top-dose-only effect; inactive means no such curve, though single readings can be large or run the other way; tested in A549 cells; also: nearly all actives have a fitted effect of over 30% in size; inactives centre near -10
Numbers without * were called inactive; i = inactive; ? = inconclusive; / = no result given; & = joins results of further samples; [ ] = another dose, or the depositor's remark. % is scaled to controls: 0 for no effect and ±100 for the full control effect; potency is read from the fitted curve at half-maximal effect.

SMILES	VACV mCherry inh	VACV Venus inh
COc1cc2c(cc1OC)-c1c(OC)c(OC)cc3c1[C@H](C2)N(C)CC3	?	-22%
O=C(CSc1ncc2c(n1)-c1ccccc1N(Cc1ccccc1)S2(=O)=O)Nc1ccccc1	2%	4%
Cc1ccccc1NC(=O)COC(=O)C1C2CC3OC(=O)C1C3C2 (centres undefined)	9%	-2%
COC(=O)c1ccc(NC(=O)Cc2ccc(C)cc2)cc1	-13%	-4%
CC(=O)Nc1ccc(C(=O)N2CCCC(c3cc(C(=O)Nc4ccccc4Cl)no3)C2)cc1 (centres undefined)	-7%	1%
COc1ccc(NC(=O)c2cc(C)on2)cc1OC	i	-2%
CCOc1cccc(C2c3[nH]c4ccccc4c3CCN2C(=O)CCc2ccccc2)c1 (centres undefined)	-2%	-9%
Cc1cc(C(=O)COC(=O)c2ccc(F)cc2)c(C)n1C	-7%	-3%
Cc1cc(C)c(NC2=NCCS2)cc1C	-9%	-7%
CC1(C(=O)NS(=O)(=O)Cc2ccccc2C(F)(F)F)CCN1C(=O)c1ccccc1 (centres undefined)	1%	2%
CCn1c(SCC(=O)NCc2ccco2)nnc1C(C)C	i	-11%
CC(=O)c1cccc(NC(=O)c2ccc3nc(Cc4ccccc4)oc3c2)c1	-12%	-13%
COc1cc(NC(=O)c2ccccc2Cl)ccc1NC(=O)c1ccco1	14µM*	?
COc1ccc(/C=C/C(=O)NCCCn2ccnc2)cc1	0%	-15%
CCOc1ccccc1NC(=O)C1=C(C)Nc2ncnn2C1c1ccc(C)o1 (centres undefined)	-10%	3%
CN1C(=O)OC(C)(CCc2ccccc2)C1(C)O (centres undefined)	-21%	-18%
CC1Cc2nc(SCC(=O)NCc3ccccc3)n(Cc3ccccc3)c(=O)c2S1 (centres undefined)	-23%	-4%
CCS(=O)(=O)c1ccc(O)c(NC(=O)COc2ccc(Cl)cc2)c1	?	1%
CCOC(=O)/C=C1\CN(Cc2ccc(OC)cc2)S(=O)(=O)c2ccc(C(F)(F)F)cc21	i	-9%
Cc1ccc(N2C(=O)CC(Nc3ccccc3)C2=O)cc1 (centres undefined)	-11%	-2%

Given as comma-separated lines: 5 of the compounds above.
canonical_smiles,VACV mCherry inh,VACV Venus inh
CC1Cc2nc(SCC(=O)NCc3ccccc3)n(Cc3ccccc3)c(=O)c2S1 (centres undefined),-23%,-4%
CCOC(=O)/C=C1\CN(Cc2ccc(OC)cc2)S(=O)(=O)c2ccc(C(F)(F)F)cc21,i,-9%
Cc1cc(C)c(NC2=NCCS2)cc1C,-9%,-7%
Cc1ccc(N2C(=O)CC(Nc3ccccc3)C2=O)cc1 (centres undefined),-11%,-2%
COc1cc(NC(=O)c2ccccc2Cl)ccc1NC(=O)c1ccco1,14µM*,?

Later entries:
SMILES	VACV mCherry inh	VACV Venus inh
Cc1ccc(/C=N/N2CCOCC2)s1	-5%	-10%
CCCCNC(=O)c1onc(CSc2ccccc2)c1C(=O)O	i	0%
COc1cccc2cc(C(=O)NCCC3=CCCCC3)c(=O)oc12	-9%	-12%
CC1Cc2nc(SCC(=O)NC3CCCCC3)n(C)c(=O)c2S1 (centres undefined)	-15%	-15%
CCC(Sc1nc2ccccc2c2nc(CCc3c(C)n[nH]c3C)nn12)C(=O)Nc1ccc(F)cc1 (centres undefined)	-7%	8%
CCOc1cc(C(=O)OCC(=O)Nc2ncc(Cl)c(C)c2Cl)ccc1OCC(=O)N1CCOCC1	-11%	-4%
Cc1nn2c(CN(C(=O)CN3CCOCC3)c3ccccc3)nnc2c2ccccc12	-16%	-7%
Cc1ccc(S(=O)(=O)c2c(C)cc(C)nc2N2CCCCC2)cc1	i	-9%
CSc1nc(-c2ccccc2)c(C#N)c(=O)[nH]1	-13%	-2%
COc1ccc(NC(=O)C2CC(c3ccccc3O)=NO2)cc1OC (centres undefined)	-3%	-27%
CCOC(=O)c1ccc(NS(=O)(=O)c2ccc(-c3cc(C)no3)cc2)cc1	-6%	-13%
Cc1ccc(C(=O)NC(C)(COc2nonc2C)COc2nonc2C)cc1	-24%	-20%
Cc1cccc(N2CCN(C(=O)c3ccccc3NC(=O)C3CC=CCC3C(=O)O)CC2)c1 (centres undefined)	/	-3%
O=C(CCC(=O)N1CCOc2ccc(Cl)cc21)NCCCN1CCN(Cc2ccccc2)CC1	-18%	-13%
Cc1ccc(-c2nnc(Nc3ccc(O)cc3)c3ccccc23)cc1S(=O)(=O)NCC1CCCO1 (centres undefined)	?	-25%
O=C(CNS(=O)(=O)c1ccc2ccccc2c1)OCC(=O)c1ccc(Br)s1	-13%	-3%
CCOc1ccc(NC(c2ccccn2)c2oc(CO)cc(=O)c2O)cc1 (centres undefined)	32%[activator]	-5%
COC(=O)C(C)Sc1ncnc2c1nnn2-c1ccc(F)cc1 (centres undefined)	/	-8%
COc1cc(NC(=O)CSc2ccc(-c3sc(C)nc3C)nn2)cc(OC)c1	-7%	-28%
O=c1[nH]c2ccccc2n1C1CCN(C(c2cccc3ccccc23)c2nnnn2-c2ccc3c(c2)OCCO3)CC1 (centres undefined)	0%	-12%
CC(=O)Nc1cccc(-c2cnc(NC(C)=O)cn2)c1	?	-29%
COc1ccccc1NS(=O)(=O)c1ccc(NC(=O)c2ccccn2)cc1	-21%	-18%
CCN(C(=O)c1ccc(S(=O)(=O)N2CCC(C)CC2)cc1)C1CCS(=O)(=O)C1 (centres undefined)	i	-5%
COc1cccc(Cn2cnc3c(N)c(C)c(C)cc32)c1	i	-15%
CCOc1ccccc1C(=O)OCC(=O)NCc1ccc2c(c1)OCO2	i	-3%
COc1cc(CN(C)Cc2cc(=O)n3ccsc3n2)ccc1OC(F)F	?	-14%
CCOc1ccccc1N1CCN(C(=O)C2CSC3(C)CCC(=O)N23)CC1 (centres undefined)	-16%	-11%
CCN(CC)C(=O)[C@H]1CC(CC(=O)NCC23CC4CC(CC(C4)C2)C3)C(=O)N2CCc3c([nH]c4ccc(OC)cc34)[C@]12C (some centres undefined)	?	-16%
CCc1nn(CC(=O)NC(C)CC)c(=O)c2cc3c(OC)cccc3n12 (centres undefined)	-5%	-9%
O=C(CCCN1CCC(O)(c2ccc(Cl)cc2)CC1)c1ccc(F)cc1	-2%	-18%&-21%
O=C1NC[C@H](CCCCN2CCN(CCc3ccc(O)cc3)C(=O)C2=O)N(CCc2ccc(O)cc2)C1=O	6%	3%
COc1cc(NS(=O)(=O)c2ccc(NC(=O)c3ccc(OC)c(Br)c3)cc2)nc(OC)n1	-10%	-6%
COc1ccccc1NC(=O)CSc1nnc(C)s1	-12%	-10%
COc1ccc(Oc2nc3c(c(=O)n(Cc4ccc(Br)cc4)c(=O)n3C)n2C)cc1	i	-18%
C=CCOC(=O)C1=C(C)N(C)C(=O)NC1c1cc2c(cc1Br)OCO2 (centres undefined)	/	-10%
O=C(NC12CC3CC(CC(C3)C1)C2)C1CC(=O)N(c2ccccc2)C1 (centres undefined)	/	2%
C#CCn1c(=NC(=O)c2ccc(S(=O)(=O)N3CCCc4ccccc43)cc2)sc2cc(S(N)(=O)=O)ccc21	?	-30%
Nc1c(Cl)cc(S(N)(=O)=O)cc1S(N)(=O)=O	i	-4%
COc1cc(C(=O)Nc2ccc(-c3nc4ccccc4o3)c(O)c2)cc(OC)c1OC	14%	1%
CC1CCC(Nc2nnnn2-c2ccccc2)CC1 (centres undefined)	-19%	-24%

5 entries from above, comma-delimited:
canonical_smiles,VACV mCherry inh,VACV Venus inh
CCN(CC)C(=O)[C@H]1CC(CC(=O)NCC23CC4CC(CC(C4)C2)C3)C(=O)N2CCc3c([nH]c4ccc(OC)cc34)[C@]12C (some centres undefined),?,-16%
CCc1nn(CC(=O)NC(C)CC)c(=O)c2cc3c(OC)cccc3n12 (centres undefined),-5%,-9%
O=C(CCCN1CCC(O)(c2ccc(Cl)cc2)CC1)c1ccc(F)cc1,-2%,-18%&-21%
O=C1NC[C@H](CCCCN2CCN(CCc3ccc(O)cc3)C(=O)C2=O)N(CCc2ccc(O)cc2)C1=O,6%,3%
COc1cc(NS(=O)(=O)c2ccc(NC(=O)c3ccc(OC)c(Br)c3)cc2)nc(OC)n1,-10%,-6%

Returning to the listing, repeating the 2 entries before the break.
SMILES	VACV mCherry inh	VACV Venus inh
COc1cc(C(=O)Nc2ccc(-c3nc4ccccc4o3)c(O)c2)cc(OC)c1OC	14%	1%
CC1CCC(Nc2nnnn2-c2ccccc2)CC1 (centres undefined)	-19%	-24%
CN(C)c1ccc(NC(=O)Nc2ccc3snnc3c2)cc1	-13%	-14%
CSc1ncc(C(=O)NCc2ccccc2F)c(-c2ccccc2)n1	-22%	-6%
Cc1ccc2c(c1C)NC(=O)CC2c1ccc(Cl)cc1Cl (centres undefined)	-25%	-24%
Cc1ccc(-n2ncc3c(N(CC(C)C)CC(C)C)ncnc32)c(C)c1	2%	3%
Cc1ccc(NC(=S)N2CCN(C(=O)C3CCCO3)CC2)cc1 (centres undefined)	i	-18%
CCOC(=O)c1cnc2ccc(OC)cc2c1Nc1ccc2c(c1)OCCO2	?	?
COc1ccc(C(=O)Cn2nnc(-c3ccccc3NC(=O)C(F)(F)F)n2)cc1	-10%	-4%
O=C(C[n+]1ccccc1)c1ccc(-c2ccccc2)cc1	-8%	-12%
CCOc1ccc(CNC(=O)C2CCCN(c3nn4cc(-c5ccc(OC)cc5)nc4s3)C2)cc1 (centres undefined)	?	?
O=C(CSc1nc(=O)[nH]c2c1CCC2)NCc1ccc(F)cc1	-1%[7.34 µM]	-3%[7.34 µM]
CCCC(=O)Nc1cc(-c2nc3ncccc3o2)ccc1C	/	-7%
O=C1c2ccccc2C(Nc2ccc3c(c2)OCCO3)N1Cc1ccc2c(c1)OCO2 (centres undefined)	-20%	-16%
O=C(Cn1cnc(S(=O)(=O)N2CCCCC2)c1)N1CCN(c2ccc([N+](=O)[O-])cc2)CC1	-2%[7.34 µM]	7%[7.34 µM]
CC(=O)c1cnc(Nc2ccccc2)s1	/	-30%
C(=N\N1CCOCC1)/c1nc(-c2ccccc2)n2ccccc12	-7%	-8%
CCCCSc1nc2sc3c(c2c(=O)[nH]1)CC(C)(CC)OC3 (centres undefined)	-15%	-13%
Cc1ccc2oc(C(=O)Nc3ccc(S(=O)(=O)Nc4nc(C)cc(C)n4)cc3)cc(=O)c2c1	i	-23%
Cn1cc(S(=O)(=O)Nc2cccc(F)c2)c(=O)n(C)c1=O	-12%	9%
CCCC[C@H]1COCCS(=O)(=O)N1Cc1ccc(Br)cc1	-23%	-12%&-20%
C/C(CCC1CC(C)OC1=O)=N/Nc1nc(-c2ccccc2)cs1 (centres undefined)	-11%	-18%
Cn1c(=O)c2c(-c3ccccc3)n(-c3cc(Cl)c([N+](=O)[O-])cc3O)cc2n(C)c1=O	17%	1%
CC(C)(C)c1ccc(C2=CSC3=NCCN23)cc1	-18%	-15%
Cc1nn(-c2ccccc2)c(N2CCCC2)c1/C=N/n1cnc2scc(-c3ccccc3)c2c1=O	-7%	-13%&-7%
CSC1=N/C(=C\c2ccc(F)cc2)C(=O)S1	/	-28%
CCOC(=O)CSc1nc(COc2ccccc2)nc2ccccc12	-21%	3%
COc1ccccc1C1Nc2ccccc2NC2=C1C(=O)CC(C)(C)C2 (centres undefined)	i	-1%
CC(C)NC(=O)CSc1nnc(-c2ccc(S(=O)(=O)N3CCCC3)cc2)n1CC1CCCO1 (centres undefined)	-3%	8%
COc1ccccc1CNc1ccc(N2CCCCC2)cc1	-18%	-8%
CCc1noc(C)c1C(=O)Nc1cc(S(=O)(=O)N2CCOCC2)ccc1OC(C)C	i	-10%
CCOc1ccc(CN(C)C(=O)Cc2c[nH]c3ccccc23)cc1	i	-16%
CCNC(=O)C1CCCN(C(=O)c2ccc3ccccc3c2)CC1 (centres undefined)	16%	-7%
O=C1CCC(=O)O1	-10%	-7%
COc1ccccc1C(=O)NCCC(=O)N(Cc1ccco1)Cc1cccs1	-20%	-3%
COC(=O)c1ccccc1NC(=S)NC(=O)c1ccc2ccccc2c1	-13%	-7%
COc1ccc2sc(-c3ccccc3OC)c(C#Cc3cncn3C)c2c1	-20%	-25%
COc1cc(/C=C2\NC(=O)NC2=O)cc(Br)c1OC	-27%	-19%
CCN(C(=O)COC(=O)c1cccs1)c1c(N)n(Cc2ccccc2)c(=O)[nH]c1=O	i	-10%
COc1ccccc1CNC(=O)c1cc2ccccc2o1	i	-18%
CCOC(=O)c1ccc(N2Cc3ccccc3C2=NC(=O)c2cccs2)cc1	-24%	-26%
Cc1ccc(/C=N/Nc2nnc(Cl)c3ccccc23)cc1	-14%	4%
O=C(Nc1ccccc1C(=O)NCCCn1ccnc1)c1ccccc1	-13%	-13%
CCCCn1c(N)c(N(CCOC)C(=O)C2CCN(S(=O)(=O)c3ccc(C)c(C)c3)CC2)c(=O)[nH]c1=O	-15%	-10%
COc1ccc(N2CCN(c3oc(-c4ccc(OC)c(OC)c4)nc3C#N)CC2)cc1	-15%	-7%
O=C(C(O)c1ccccc1)N1CCN(S(=O)(=O)c2ccc(OC(F)(F)F)cc2)CC1 (centres undefined)	i	-29%
Cc1cccc(CNC(=O)CN2C(=O)CSc3c2c(C)nn3-c2ccccc2)c1	23%	-10%
O=C(CC1C(=O)NCCN1CC1CCCCC1)NCc1cc(F)ccc1F (centres undefined)	-16%	-2%
N#Cc1c(C(F)(F)F)cc(-c2ccc(Cl)c(Cl)c2)nc1SCCN1CCOCC1	-8%	3%
COC(=O)c1ccccc1Sc1snnc1C	5%	-1%
CCc1cccc2c(C(=O)CN3C(=O)NC4(CCCCCC4)C3=O)c[nH]c12	-12%	?
CCc1ccc(CNC(=O)c2nn(-c3ccc(C)cc3)c(=O)c3c2c2ccccc2n3C)cc1	-13%	-9%
COCCn1c(CN2CCN(C)CC2)nc2c1c(=O)n(C)c(=O)n2C	1%	-9%
